MLL AF4-AF9 inh: inhibitors of AF4 peptide binding to AF9, primary screen, biochemical, AlphaScreen, biotin-AF4 peptide, FLAG-AF9, single point. Protein AF-9 (Homo sapiens), P42568. inhibition, % at 10 µM. 350,000 tested, 0.47% active;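 active = every replicate reaching a set inhibition limit, whatever the replicate mean, cut at about 25% in these data; inconclusive = mean inhibition reaches that limit but some replicates miss it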;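 note: 0% = plate neutral control median and 100% = total signal loss; the record names both 10 and 1 µM as test concentration; the first replicate is given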
Target sequence (P42568 whole entry, looked up): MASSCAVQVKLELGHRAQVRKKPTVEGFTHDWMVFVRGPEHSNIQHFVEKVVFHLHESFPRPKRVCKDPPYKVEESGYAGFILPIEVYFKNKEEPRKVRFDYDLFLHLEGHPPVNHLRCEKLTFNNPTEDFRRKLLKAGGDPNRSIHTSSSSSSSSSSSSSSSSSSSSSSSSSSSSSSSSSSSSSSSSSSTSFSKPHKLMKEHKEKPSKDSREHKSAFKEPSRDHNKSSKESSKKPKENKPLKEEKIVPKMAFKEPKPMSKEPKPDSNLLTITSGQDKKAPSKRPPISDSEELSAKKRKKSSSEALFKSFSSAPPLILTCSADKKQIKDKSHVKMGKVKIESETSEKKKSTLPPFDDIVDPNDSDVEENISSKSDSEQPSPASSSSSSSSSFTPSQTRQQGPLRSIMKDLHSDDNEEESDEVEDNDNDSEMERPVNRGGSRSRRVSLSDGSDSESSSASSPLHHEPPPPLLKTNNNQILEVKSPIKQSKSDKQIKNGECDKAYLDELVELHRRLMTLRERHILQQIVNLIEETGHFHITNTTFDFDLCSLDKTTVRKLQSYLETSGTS
RanGTP-Impb inh: inhibitors of RanGTP-importin-beta interaction, primary screen, biochemical, FRET, CFP-Ran, YFP-importin-beta, homogeneous | cell-free CFP-Ran/YFP-importin-beta FRET ratio | inhibition, % (no concentration beside the values) | 300,000 tested, 1.1% active | AID 2216, 2009;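 active = most replicates above 15%; inconclusive = exactly half above 15%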;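 note: 0% = DMSO wells and 100% = Ran loaded with GDP instead of GTP; wells of about 40 µL received 100 nL stock; the first replicate is given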
Calb FLC: C. albicans growth inhibition with fluconazole, primary screen, CaCi-2 strain, Alamar Blue fluorescence | 300,000 tested, 0.57% active | C. albicans CaCi-2 (fluconazole-resistant clinical isolate) + fluconazole, 48 h | growth inhibition, % (concentration not given with the values);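 active = most replicates above 75%; inconclusive = exactly half above 75%; inactive = most below 75%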;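 note: all wells also contain fluconazole at 8 µg/ml as a sub-toxic cotreatment; 0% = median of DMSO wells and 100% = median of geldanamycin control wells; wells of about 8 µL received 7.5 nL stock; the first replicate is given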
Vif TR-FRET: inhibitors of Vif binding to APOBEC3G peptide, primary screen, biochemical, TR-FRET, GST-Vif 1-94, biotin-A3G peptide, dose response retest (AID 1117319); TR-FRET GST-Vif / biotin-A3G peptide binding; higher % means a stronger effect; test concentration not given here; strong numbers were not always called active; inhibition, %; hits with a dose series show IC50 in µM; 260,000 tested, 0.57% active;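 active = above the screen mean plus three standard deviations and confirmed in dose response; inconclusive = results disagree or hit not tested in dose response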;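 note: Vif residues 1-94 fused to GST binding biotinylated APOBEC3G peptide 110-148; 0% = full assay without inhibitor and 100% = GST in place of GST-Vif; retest series ran down from 100 µM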
LANA-H2B inh: blockers of LANA interaction with H2A/H2B – biochemical, FP readout, HTS, primary screen | Protein LANA1 (Human herpesvirus 8 type P (isolate GK18)), Q9QR71 | cell-free LANA-H2A/H2B peptide, fluorescence polarization | inhibition, % (concentration not given with the values) | 320,000 tested, 0.6% active; in the data active = inhibition mostly above about 10%, no sharp cut-off; inactive = mostly below about 6.7%;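 note: stock transfer was 7.5 nL into about 10 µL; 0% = median of vehicle wells and 100% = median of positive control wells; one replicate is shown; the record names a cut of 25% in any replicate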
T cruzi inh: inhibitors of intracellular T. cruzi growth, primary screen, luminescence, NIH3T3 host cells; inhibition, % (no concentration beside the values); T. cruzi beta-gal in NIH3T3, 90 h; 300,000 tested, 1.4% active;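 active = mean inhibition across valid replicates above about 55%, limit read from the data; inconclusive = mean below that limit but half or more replicates reach it; inactive = mean below it, under half of replicates reach it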;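 note: signal also drops with host cell toxicity which is not excluded here; 0% = plate median of DMSO wells and 100% = zero luminescence signal; higher percent means less beta-gal luminescence so fewer parasites; stock transfer was 50 nL into about 50 µL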
Bfl-1 A1 inh: caspase 3/7 activation in MEF A1-2A-BIM cells, primary screen, A1 inhibitor project, cell-based, luminescence, HTS; 330,000 tested, 0.066% active; AID 2462, 2010; caspase activation, % (concentration not given with the values); Caspase-Glo 3/7 luminescence, 3 h; percent of clofoctol response, vehicle zero;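 active = over half of replicate activation scores above 10%, or exactly half above 10 with the replicate mean above 10; inconclusive = replicate mean below 10 yet half the replicates above 10; inactive = over half of replicates below 10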;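 note: wells of about 30 µL received 50 nL stock; many hits fall short of the cut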
Beta cell apopt: inhibitors of cytokine-induced beta cell apoptosis, primary screen, luminescence; INS-1E cytokine-induced death, ATP luminescence, 48 h; percent of positive-control rescue, neutral wells zero; protection from apoptosis, % (concentration not given with the values); 300,000 tested, 0.8% active; AID 435005, 2010;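 active = all replicates at 75% or more, or half of them and the mean; inconclusive = half reach 75% but not the mean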;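 note: 0% = cytokine-treated negative control wells and 100% = positive control rescue; higher means more ATP so stronger rescue from cytokine killing; wells of about 40 µL received 100 nL stock; the first replicate is given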
An asterisk follows results filed as active; ? = inconclusive; . = no result given; & = joins results of further samples.

SMILES	MLL AF4-AF9 inh	RanGTP-Impb inh	Calb FLC	Vif TR-FRET	LANA-H2B inh	T cruzi inh	Bfl-1 A1 inh	Beta cell apopt
O=C(CSc1ccccn1)Nc1nc2ccccc2s1	.	0.2	-28	.	-0.5	10	0.5	-6
CCOc1c(CNCc2ccc(C(=O)O)cc2)cccc1OC	-1.3	?	?	1%	7.5	-4	0.2	-3
Cc1cccc(N=Nc2c(N)n[nH]c2N)c1	6.5	1.2	22	.	0.7	-8	0.3	-10
O=C(CCCC(=O)c1ccc(F)cc1)c1ccc(F)cc1	-6.2	5.5	9	-4%	3.6	-5	-3.2	-7
Cc1cc(C)c2c(-c3ccc(F)cc3)c(C#N)c(=O)n(C)c2n1	-2.1	-3.9	-8	.	-2.9	5	0.7	11
O=C(c1cc(-c2ccc(Br)cc2)nc2ccccc12)N1CCC1	-5.8	?	-3	-7%	2.2	30	-0.3	16
O=C(CN1C(=O)c2ccccc2S1(=O)=O)Nc1ncccn1	-1.1	2.7	2	1%	2.3	16	0.8	-6
COc1ccc(N/N=C(\C#N)C(=N)SCc2ccccc2)cc1	-13	2.5	-23	93%	.	-6	.	.
CN(NC1OC(=O)c2ccccc21)c1c([N+](=O)[O-])cc(C(F)(F)F)cc1[N+](=O)[O-] (stereo not given)	3.8	0.5	1	-10%	3.8	-22	0.6	.
Cn1c(C=O)c(-c2ccc3cc[nH]c3c2)c2ccccc21	-0.7	.	.	.	4.7	.	-0.1	-5
O=C(NCCc1ccccc1)C(=O)NCC1OCCCN1S(=O)(=O)c1ccc(F)cc1 (stereo not given)	-2.4	?	3	.	-1.2	8	0.3	-1
CCCC[C@@H]1CNC(=S)N1CCCc1cc(OC)c(OC)c(OC)c1	?	-0.3	13	15%	3.4	-2	1.3	0
CCN(CC)c1ccc(-n2c(C)c(C(C)=O)c(C(C)=O)c2C)cc1	.	10	-4	8%	4.0	-5	-1.1	1
COc1cc(NC(=O)[C@@H](NC(=O)c2ccco2)C(C)C)c(OC)cc1NC(=O)c1ccccc1	-0.4	-0.2	-4	1%	-1.5	-5	-0.5	6
O=C1c2cnc3ncnn3c2CC2c3ccccc3CCN12 (stereo not given)	-16	4.3	-5	8%	-2.8	-20	0.5	.
CCOC(=O)C1=C(Cn2cnc3ccccc32)NC(=O)NC1c1ccc(OC)cc1 (stereo not given)	.	-3.3	-17	66%	.	-1	.	.
O=C(CSc1ccccn1)Nc1nc2c(ccc3ccccc32)s1	.	1.1	2	6%	0.0	12	-0.3	1
Cc1ccc(OCC(=O)NC2CCCCCC2)cc1C	1.2	-4.5	-9	-9%	-6.4	-5	-0.5	.
O=C(Oc1ccc(N(Cc2cccs2)C2=NS(=O)(=O)c3ccccc32)cc1)c1ccccc1	.	7.5	-16	2%	-1.1	-7	0.6	-2
O=C(NCC1(c2ccccc2)CCCC1)C(=O)N1CCOCC1	.	3.7	-2	-7%	-1.1	-14	0.4	-3
CCC(=O)Nc1ccc(C(=O)NNC(=O)c2cccc(C)c2)cc1	-38	2.3	-4	-6%	-6.2	7	-0.2	-3
O=C(CCN1C(=O)/C(=C/c2ccc3c(c2)OCO3)SC1=S)Nc1ccccc1	.	0.5	3	.	-1.5	-17	1.5	-4
CCOc1ccc(Cl)cc1CSc1n[nH]c(CC)n1	.	?	8	5%	-0.9	-4	-0.2	-5
COc1ccccc1NS(=O)(=O)c1cc(NC(=O)Nc2ccc(Cl)cc2Cl)ccc1N1CCCCC1	.	-3.4	-6	.	-0.6	59*	1.1	40
CCCn1c(SCC(=O)NCCc2ccccc2)nnc1C(C)C	2.1	?	-9	-5%	0.0	-2	1.3	-1
C=CCOc1c(Br)cc(CNc2ccc(NC(=O)C(C)C)c(OC)c2)cc1OC	.	27*	40	?	5.9	43	0.2	9
COc1ccc(N/N=C(/C#N)S(=O)(=O)C(C)(C)C)cc1	3.0	-0.9	?	11%	-3.1	2	-0.3	.
Cc1cccc(OCCSc2nncn2C)c1	-7.8	5.4	-60	.	6.3	-12	0.7	-5
O=S(=O)(c1ccc2c(c1)OCCO2)N1CCN(S(=O)(=O)c2ccccn2)CC1	-2.2	.	.	.	7.9	.	0.4	1
CC(C)Oc1ccc(CCNC(=O)C2CCC(=O)N(C3CCCCCC3)C2)cc1 (stereo not given)	2.8	-2.9	-6	.	1.7	-8	1.3	-1
COCCCNC(=O)COc1ccc2oc3c(c2c1)CCCC3	-0.2	-0.6	-7	.	5.2	7	0.2	-5
COC(=O)[C@]1(C)N[C@H](CN(C)C(=O)Nc2ccc(F)cc2)[C@@H]2C(=O)N(C)C(=O)[C@@H]21	-2.1	.	.	-1%	0.9	.	-0.1	-6
COc1cccc(NC(=S)N2CCN(c3ccc([N+](=O)[O-])cc3)CC2)c1	5.1	-0.5	-8	-5%	-2.2	-50	-0.2	12
COc1ccc(CCNC(=O)CSc2ccc(NC(C)=O)cc2)cc1OC	-3.2	-2.2	2	.	0.1	-6	-0.3	-7
Cc1ccccc1CCN(CC(=O)NC1CCCCC1)C(=O)c1csnn1	-0.1	-1.6	-13	22%	-1.0	-2	-0.5	1
COCc1ccc(CN2CCCC(C(=O)Nc3ccc(-c4cscn4)cc3)C2)o1 (stereo not given)	4.6	-3.9	-4	.	5.8	7	0.5	3

One compound at a time, as listed above. Order of values: MLL AF4-AF9 inh	RanGTP-Impb inh	Calb FLC	Vif TR-FRET	LANA-H2B inh	T cruzi inh	Bfl-1 A1 inh	Beta cell apopt
COCc1ccc(CN2CCCC(C(=O)Nc3ccc(-c4cscn4)cc3)C2)o1 (stereo not given) as listed: 4.6	-3.9	-4	.	5.8	7	0.5	3
COc1ccccc1NS(=O)(=O)c1cc(NC(=O)Nc2ccc(Cl)cc2Cl)ccc1N1CCCCC1 as listed: .	-3.4	-6	.	-0.6	59*	1.1	40

Additional records:
SMILES	MLL AF4-AF9 inh	RanGTP-Impb inh	Calb FLC	Vif TR-FRET	LANA-H2B inh	T cruzi inh	Bfl-1 A1 inh	Beta cell apopt
CCC(=O)Nc1nc(OC)cc(OC)n1	.	1.3	3	1%	3.1	-10	1.4	-9
CCn1nc(NC(=O)CC(C)C)c2cc3cccc(C)c3nc21	-6.3	?	-4	0%	0.3	0	0.0	1
CC1CCN(S(=O)(=O)c2ccc(NC(=O)Cn3nnc(-c4ccccc4F)n3)cc2)CC1	.	4.7	-20	-6%&2%	0.2	69*	0.3	4
COC(=O)C(O)(CC(=O)c1ccc(OC)cc1)C(F)(F)F (stereo not given)	.	1.5	-2	67%	1.0	-5	-0.4	0
CCn1c(CNc2ccc(C)cc2)nnc1SCC(=O)NCc1ccccc1	6.1	.	-3	73%&7%	-12	-8	-0.6	4
CCN(CC)c1ccc(C(=O)NN)cc1	0.4	3.0	42	6%	-3.2	-9	-0.2	-3
CCOc1ccccc1CNC(=O)Cn1ccc2cc(S(=O)(=O)N3CCCCCC3)ccc21	-0.4	?	-15	.	-0.3	10	-0.6	33
O=C(CN1C(=O)NC2(CCCc3ccccc32)C1=O)N1CCc2ccccc2C1 (stereo not given)	.	-4.2	11	5%	2.3	2	-2.3	3
CCn1c(=S)sc2c(=O)n(-c3ccccc3)c(=S)[nH]c21	1.8	2.4	-2	4%	-1.6	9	-0.9	-3
CCCCn1c(SCC(=O)N(C)C2CCS(=O)(=O)C2)nc2cc(S(N)(=O)=O)ccc21 (stereo not given)	-62	0.8	-2	19%	-5.8	-3	-0.9	-1
CCN(CC)CCNc1ccnc2cc(Cl)ccc12	0.2	4.7	21	5%	-1.0	49	0.6	13
O=C(Nc1nnc(C2CC2)s1)c1cc([N+](=O)[O-])ccc1N1CCCCC1	.	5.5	24	8%	-2.1	4	1.1	2
COc1ccc(C(=O)OCc2nc(N)nc(Nc3ccccc3C)n2)cc1OC	2.3	7.8	-11	3%	1.5	-7	-0.3	6
CC(C)C(=O)Nc1ccc(C(=O)Nc2nnc(C(C)C)s2)cc1	-2.7	2.6	0	?	4.9	-6	-1.0	-4
CC(C)(C)c1ccc(Oc2ccc(N)cc2)cc1	-7.2	1.0	?	7%	5.5	-7	0.4	-2
O=C1NC(Cc2ccc(O)cc2)c2nc3ccc(Br)cc3c(=O)n2-c2ccc(Cl)cc21 (stereo not given)	-2.2	.	.	.	4.9	.	1.7	6
O=C(NCC(c1ccco1)N1CCOCC1)c1ccccc1 (stereo not given)	-2.4	5.3	-2	0%	-0.4	1	0.5	.
O=C(Nc1ccccc1)NC1(C(=O)NCCCN2CCOCC2)CCCCC1	.	.	.	-3%	2.8	.	0.5	2
O=C1CC(Nc2ccc(N3CCOCC3)cc2)C(=O)N1c1ccccc1 (stereo not given)	.	-7.0	-1	17%	-2.7	3	0.6	0
CCN(CC)S(=O)(=O)c1ccc(-n2cnnn2)c(C)c1	.	-1.8	-4	8%	2.9	-12	1.0	-2
CC1Cc2ccccc2N1C(=O)CSc1ncccc1C(=O)O (stereo not given)	.	2.6	4	.	1.6	-5	0.6	-9
CCCC[C@@H](CN[C@H](C)CNC)NCC1CCC(C(C)(C)C)CC1 (stereo not given in full)	4.3	2.5	-19	.	1.6	41	0.1	93*
CCc1ccc2[nH]c(C(=O)Nc3ccc(Br)c(C)n3)cc2c1	?	3.1	1	-44%	.	7	.	.
COc1ccc(CNC(=S)Nc2ccccc2)cc1Cl	1.0	0.6	-38	7%	-4.0	4	0.1	-4

Retrieved by compound from above (4):
SMILES	MLL AF4-AF9 inh	RanGTP-Impb inh	Calb FLC	Vif TR-FRET	LANA-H2B inh	T cruzi inh	Bfl-1 A1 inh	Beta cell apopt
CCn1nc(NC(=O)CC(C)C)c2cc3cccc(C)c3nc21	-6.3	?	-4	0%	0.3	0	0.0	1
CCC(=O)Nc1nc(OC)cc(OC)n1	.	1.3	3	1%	3.1	-10	1.4	-9
COc1ccc(N/N=C(/C#N)S(=O)(=O)C(C)(C)C)cc1	3.0	-0.9	?	11%	-3.1	2	-0.3	.
O=C(CCCC(=O)c1ccc(F)cc1)c1ccc(F)cc1	-6.2	5.5	9	-4%	3.6	-5	-3.2	-7

More compounds.
SMILES	MLL AF4-AF9 inh	RanGTP-Impb inh	Calb FLC	Vif TR-FRET	LANA-H2B inh	T cruzi inh	Bfl-1 A1 inh	Beta cell apopt
O=C(NCc1ccccc1)N1CCOc2ccccc21	-0.7	-1.1	3	-2%	1.3	-3	0.6	-5
NS(=O)(=O)c1ccc(NC(=O)/C=C/c2ccc(S(=O)(=O)NCc3ccco3)cc2)cc1	1.6	-1.2	-9	15%	-2.1	-1	0.7	-3
Cc1ccc(Oc2ccc(NS(=O)(=O)c3cccc(C(=O)O)c3)cc2)cc1	2.3	.	.	21%	1.9	.	1.9	-6
Nc1ccc2nc(-c3cccc(-c4nc5ccc(N)cc5[nH]4)n3)[nH]c2c1	3.7	1.8	8	.	0.8	-9	0.5	1
CCCCNC(=S)Nc1ccc(F)cc1	.	-1.4	-14	-10%	1.3	-19	-0.2	.

Screening data: PubChem, several laboratories
